High-throughput results from PubChem.
Vaccinia inh: blocks a specific stage of Vaccinia orthopoxvirus infection, primary screen, cell-based, single point. Vaccinia-infected cells, mCherry/Venus stage reporter fluorescence; stronger effect = lower value; some inactives read as strong as hits. activity change (mCherry), % (no concentration beside the values). actives 0.01% (n = 89,000). AID 1053133, 2014;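 active = mCherry past -33% and 40 or more points under the early reporter, replicates agreeing; inconclusive = past -33% without that gap or agreement; tested in A549 cells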;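 also: scaled between vehicle wells and reference inhibitor wells; 23 nL library stock went into each well; one replicate is shown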
Vaccinia inh Venus: recorded beside Vaccinia inh, whose call it bears; activity change (Venus), %; measured here: Venus reporter, other viral stage;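 negative = less Venus signal; first of two replicates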
* marks the source's active call; other numbers are inactive results; u = inconclusive; x = not tested or not shown; & = joins results of further samples. A portion of the library (hit frequency here may not be typical).

SMILES	Vaccinia inh	Vaccinia inh Venus
C[C@H](CO)N1C[C@H](C)[C@H](CN(C)Cc2ccc(C(F)(F)F)cc2)Oc2ccc(NC(=O)Cn3cnnn3)cc2CC1=O	-16.7	-14.9
CC(=O)N1CC2(C1)[C@@H](c1ccccc1)[C@@H](CO)N2S(=O)(=O)c1ccccc1	7.4	-4.2
CC(C)NC(=O)N(C)C[C@@H]1Oc2c(NS(=O)(=O)c3ccc(Cl)cc3)cccc2C(=O)N([C@H](C)CO)C[C@H]1C	-9.2	-5.4
C[C@@H]1CN([C@H](C)CO)S(=O)(=O)c2ccc(C#Cc3cccnc3)cc2O[C@H]1CN(C)C(=O)Nc1ccc2c(c1)OCO2	0.4	-12.5
COc1ccc(NC(=O)Nc2ccc3c(c2)C(=O)N([C@H](C)CO)C[C@H](C)[C@H](CN(C)Cc2ccc4c(c2)OCO4)OCCCC[C@@H](C)O3)cc1	-2.8	-6.8
C[C@@H]1CN([C@@H](C)CO)C(=O)c2cc(NS(C)(=O)=O)ccc2O[C@@H]1CN(C)S(=O)(=O)c1cccs1	1.7	-1.2
CC(C)NC(=O)N(C)C[C@@H]1Oc2cc(C#C[C@H](C)O)ccc2S(=O)(=O)N([C@H](C)CO)C[C@H]1C	21.5	6.9
CC(=O)N(C)C[C@@H]1Oc2ncc(-c3ccc(C#N)cc3)cc2C(=O)N([C@@H](C)CO)C[C@@H]1C	-1.9	-2.0
COc1ccc(S(=O)(=O)N(C)C[C@@H]2Oc3c(NC(=O)CCCCCC(=O)Nc4ccccc4N)cccc3C(=O)N([C@@H](C)CO)C[C@H]2C)cc1	23.3	18.0
C[C@H](CO)N1C[C@H](C)[C@@H](CN(C)C(=O)c2ccccc2)Oc2ncc(Br)cc2C1=O	12.0	10.3
COc1ccc2c3c([nH]c2c1)[C@H](CO)N(C(=O)Nc1c(C)noc1C)CC31CCN(CC2CCCC2)CC1	-1.6	-4.3
Cc1ccc(S(=O)(=O)N(C)C[C@H]2OCCCC[C@H](C)Oc3ccc(NC(=O)Nc4cccc5ccccc45)cc3C(=O)N([C@@H](C)CO)C[C@H]2C)cc1	18.0	9.8
CC=Cc1ccc2n(c1=O)C[C@H]1[C@H](CO)[C@@H](C(=O)NCc3ccccc3)N(S(C)(=O)=O)[C@@H]21 (mixture of isomers)	0.0	3.2
C[C@@H]1CN([C@H](C)CO)C(=O)c2cc(Br)cnc2O[C@H]1CN(C)Cc1ccccc1F	13.4	9.6
O=C(C[C@H]1CC[C@@H](NC(=O)c2ccc3c(c2)OCO3)[C@@H](CO)O1)NCc1ccc(F)cc1	2.3	6.6
C[C@H]1CN([C@@H](C)CO)C(=O)c2cccc(NC(=O)C3CCOCC3)c2O[C@H]1CN(C)C(=O)Nc1ccc(C(F)(F)F)cc1	10.1	1.9
CN(C)c1ccc2c(c1)[C@@H]1C[C@@H](CC(=O)NCc3cccc(F)c3)O[C@@H](CO)[C@@H]1O2	13.4	17.6
CN1C(=O)c2cc(NC(=O)Cc3cccs3)ccc2OC[C@H]2O[C@@H](CC(=O)O)CC[C@H]21	10.4	12.7
CN(C)CC(=O)N1CC2(C1)[C@H](c1ccccc1)[C@H](CO)N2C(=O)C1CCCC1	4.6	10.5
C[C@H]1CN([C@@H](C)CO)C(=O)CCCn2nncc2CO[C@@H]1CN(C)Cc1ccccc1C(F)(F)F	-6.3	-7.6
C[C@@H]1CCCCO[C@@H](CN(C)S(=O)(=O)c2cccs2)[C@H](C)CN([C@H](C)CO)C(=O)c2cc(NS(=O)(=O)c3cn(C)cn3)ccc2O1	0.8	-3.4
CNC(=O)C[C@H]1CC[C@@H]2[C@H](COC[C@@H](O)CN2C(=O)c2ccc3c(c2)OCO3)O1	3.0	2.4
N#C[C@@H]1[C@H](c2ccc(-c3ccc(F)cc3)cc2)[C@@H](CO)N1c1nc(-c2ccccc2)cs1	-15.4	-11.4
CO[C@H](CN(C)S(=O)(=O)c1ccc(F)cc1)[C@H](C)CN([C@H](C)CO)S(=O)(=O)c1cccc(Cl)c1	-8.0	-4.1

Sorted by molar mass (ascending): part of the list above
SMILES	Vaccinia inh	Vaccinia inh Venus
CN(C)CC(=O)N1CC2(C1)[C@H](c1ccccc1)[C@H](CO)N2C(=O)C1CCCC1	4.6	10.5
CN(C)c1ccc2c(c1)[C@@H]1C[C@@H](CC(=O)NCc3cccc(F)c3)O[C@@H](CO)[C@@H]1O2	13.4	17.6
N#C[C@@H]1[C@H](c2ccc(-c3ccc(F)cc3)cc2)[C@@H](CO)N1c1nc(-c2ccccc2)cs1	-15.4	-11.4
CC=Cc1ccc2n(c1=O)C[C@H]1[C@H](CO)[C@@H](C(=O)NCc3ccccc3)N(S(C)(=O)=O)[C@@H]21 (mixture of isomers)	0.0	3.2
C[C@@H]1CN([C@H](C)CO)C(=O)c2cc(Br)cnc2O[C@H]1CN(C)Cc1ccccc1F	13.4	9.6
C[C@H]1CN([C@@H](C)CO)C(=O)CCCn2nncc2CO[C@@H]1CN(C)Cc1ccccc1C(F)(F)F	-6.3	-7.6
CO[C@H](CN(C)S(=O)(=O)c1ccc(F)cc1)[C@H](C)CN([C@H](C)CO)S(=O)(=O)c1cccc(Cl)c1	-8.0	-4.1
C[C@H]1CN([C@@H](C)CO)C(=O)c2cccc(NC(=O)C3CCOCC3)c2O[C@H]1CN(C)C(=O)Nc1ccc(C(F)(F)F)cc1	10.1	1.9
C[C@@H]1CCCCO[C@@H](CN(C)S(=O)(=O)c2cccs2)[C@H](C)CN([C@H](C)CO)C(=O)c2cc(NS(=O)(=O)c3cn(C)cn3)ccc2O1	0.8	-3.4

(cont.)
SMILES	Vaccinia inh	Vaccinia inh Venus
CCC(=O)N1CCC2(CC1)CN(Cc1nccs1)[C@@H](CO)c1c2c2ccc(OC)cc2n1C	15.8	9.0
CCCC#Cc1ccc([C@H]2[C@@H](C#N)N(C(=O)CN3CCOCC3)[C@@H]2CO)cc1	17.8	6.7
COCC(=O)Nc1ccc2c(c1)C(=O)N(C)C[C@@H](OC)[C@H](C)CN(Cc1cccc(F)c1)[C@@H](C)CO2	-4.1	-2.2
Cc1noc(C)c1S(=O)(=O)N(C)C[C@@H]1OCCCC[C@@H](C)Oc2ccc(NC(=O)NC(C)C)cc2C(=O)N([C@H](C)CO)C[C@H]1C	-9.1	8.1
CO[C@H]1CN(C)C(=O)c2ccc(NC(C)=O)cc2OC[C@H](C)N(S(=O)(=O)c2cn(C)cn2)C[C@H]1C	7.6	6.8
COc1ccccc1NC(=O)N1C[C@@H](C)[C@H](OC)CN(C)C(=O)c2ccc(NC(=O)c3cc(C)on3)cc2OC[C@H]1C	1.1	-1.5
C[C@H](CO)N1C[C@H](C)[C@@H](CN(C)CC2CCCC2)Oc2ncc(C#Cc3cccc(F)c3)cc2C1=O	u	x
CN(C)C(=O)c1ccc(-c2ccc3c(c2)[C@H]2[C@H](CCN2C(=O)c2cnccn2)[C@@H](CO)N3)cc1	18.0	10.8
C[C@@H]1CCCCO[C@@H](CN(C)Cc2ccc3c(c2)OCO3)[C@@H](C)CN([C@H](C)CO)C(=O)c2cc(NC(=O)c3ccccc3)ccc2O1	-16.7	-15.2
O=C(c1cnccn1)N1CC(=O)N2[C@H](CO)[C@H](c3ccc(/C=C/c4ccccc4)cc3)[C@@H]2C1	-4.8	10.2
COc1ccc(S(=O)(=O)N(C)C[C@H]2Oc3c(NS(=O)(=O)c4ccc(C)cc4)cccc3C(=O)N([C@H](C)CO)C[C@@H]2C)cc1	1.4	5.5
O=C(Cc1ccccn1)N1CCCCN2[C@H](CO)[C@@H](c3ccc(-c4ccccc4F)cc3)[C@@H]2C1	-5.7	-1.0
Cc1cccc(S(=O)(=O)N2[C@@H]3c4cccc(=O)n4C[C@H]2[C@H](CO)[C@H]3C(=O)NC2CCC2)c1	-3.7	-3.2
CC(=O)N(C)C[C@@H]1Oc2cc(C#Cc3ccccn3)ccc2S(=O)(=O)N([C@H](C)CO)C[C@H]1C	18.7	10.9
CCNC(=O)[C@@H]1[C@@H](CO)[C@@H]2Cn3c(ccc(-c4ccncc4)c3=O)[C@H]1N2CC1CC1	13.4	7.1
CCCC#Cc1ccc([C@@H]2[C@@H](CO)N3C(=O)CN(C(=O)Nc4ccccc4F)C[C@H]23)cc1	-28.9	-22.1
O=C(NC1CCCC1)[C@H]1[C@H](CO)[C@H]2Cn3c(ccc(C4=CCCC4)c3=O)[C@@H]1N2C(=O)c1ccccc1	-4.5	2.2
CCc1csc(N2[C@H](C#N)[C@@H](c3ccc(-c4cccc(F)c4)cc3)[C@H]2CO)n1	-8.8	-9.5
Cc1ccc(S(=O)(=O)N(C)C[C@@H]2Oc3ncc(C#Cc4ccccc4)cc3C(=O)N([C@H](C)CO)C[C@@H]2C)cc1	u	x
CCS(=O)(=O)N1CC(=O)N2[C@@H](CO)[C@H](c3ccc(C#CCC(C)C)cc3)[C@@H]2C1	20.2	-16.2
Cc1ccc(S(=O)(=O)Nc2ccc3c(c2)CC(=O)N([C@H](C)CO)C[C@@H](C)[C@H](CN(C)Cc2ccc(Oc4ccccc4)cc2)O3)cc1	u	x
C/C=C/c1ccc([C@@H]2[C@@H](CO)N3C(=O)CN(C(=O)Nc4ccc(F)cc4)C[C@@H]23)cc1	u	x
Cc1noc(C)c1S(=O)(=O)Nc1ccc2c(c1)C(=O)N([C@@H](C)CO)C[C@@H](C)[C@H](CN(C)C(=O)Nc1ccc(C(F)(F)F)cc1)OCCCC[C@H](C)O2	-34.9	-31.9
Cc1noc(C)c1S(=O)(=O)N(C)C[C@H]1Oc2ccc(NC(=O)C3CCCCC3)cc2CC(=O)N([C@H](C)CO)C[C@@H]1C	-2.3	3.8
O=C(Nc1ccc(F)cc1)N1CC(=O)N2[C@H](C1)[C@H](c1ccc(-c3cccc(F)c3)cc1)[C@@H]2CO	u	x
CCC(=O)N1CCC2(CC1)CN(C(=O)Cc1ccccc1)[C@H](CO)c1c2c2ccc(OC)cc2n1C	-12.7	-4.7
Cc1ccc(S(=O)(=O)NCC[C@@H]2CC[C@@H](NC(=O)Nc3ccccc3F)[C@@H](CO)O2)cc1	-7.5	-0.5
COC(=O)C[C@@H]1C[C@H]2c3cc(NC(=O)CC4CC4)ccc3O[C@H]2[C@@H](CO)O1	3.0	5.4
C[C@H](CO)N1C[C@H](C)[C@H](CN(C)Cc2ccc(C(F)(F)F)cc2)Oc2c(NS(=O)(=O)c3cn(C)cn3)cccc2C1=O	11.7	6.3
CO[C@H]1CN(C)C(=O)c2ccc(NC(=O)NC(C)C)cc2OC[C@H](C)N(C(=O)CN(C)C)C[C@H]1C	3.7	6.5
C[C@@H]1CN([C@@H](C)CO)C(=O)c2cc(Br)cnc2O[C@H]1CN(C)C(=O)Nc1ccccc1	16.8&16.2	10.5&9.9
C[C@H]1CN([C@@H](C)CO)C(=O)c2cccc(NC(=O)c3ccncc3)c2O[C@@H]1CN(C)S(=O)(=O)c1cn(C)cn1	23.1	8.6
COCC(=O)N(C)C[C@H]1Oc2ncc(C#C[C@@H](C)O)cc2C(=O)N([C@H](C)CO)C[C@@H]1C	12.4	8.4
CC(C)C#Cc1ccc2c(c1)O[C@@H](CN(C)Cc1ccncc1)[C@H](C)CN([C@H](C)CO)S2(=O)=O	u	x
CC(=O)N(C)C[C@H]1Oc2cc(-c3cccc(F)c3)ccc2S(=O)(=O)N([C@@H](C)CO)C[C@H]1C	-14.4	9.1
C[C@@H]1CCCCO[C@H](CN(C)C(=O)c2ccncc2)[C@H](C)CN([C@@H](C)CO)C(=O)c2cc(NC(=O)Cc3ccccc3)ccc2O1	23.8	10.6
COc1ccc([Si](C)(C)[C@H]2[C@H](CCO)O[C@@]3(C(=O)N(Cc4ccccc4)c4ccc(N5CCCCC5=O)cc43)[C@@H]2C)cc1	u	x
C[C@H]1CN([C@@H](C)CO)S(=O)(=O)c2ccc(Br)cc2O[C@H]1CN(C)C(=O)c1cccnc1	8.8	14.0
O=C(NCC[C@H]1CC[C@@H](NC(=O)C2CCCC2)[C@H](CO)O1)Nc1ccc(Cl)cc1	-2.2	2.6
CN(C)C(=O)C[C@H]1C[C@@H]2c3cc(NC(=O)C4CCC4)ccc3O[C@@H]2[C@H](CO)O1	12.9	3.0
C[C@@H]1CN([C@@H](C)CO)C(=O)c2cc(NC(=O)Nc3ccc(C(F)(F)F)cc3)ccc2O[C@H]1CN(C)Cc1ccc(C(=O)O)cc1	6.2	10.3
COc1ccc(S(=O)(=O)Nc2ccc3c(c2)C(=O)N([C@@H](C)CO)C[C@H](C)[C@H](CN(C)Cc2ccncc2)O3)cc1	9.1	10.1
O=C(C[C@@H]1CC[C@@H]2[C@H](COC[C@H](O)CN2Cc2cccc(F)c2)O1)NCC1CCCCC1	-22.9	-15.1
COc1ccccc1S(=O)(=O)N[C@@H]1CC[C@@H](CC(=O)NCc2cc(F)cc(F)c2)O[C@H]1CO	23.6	12.4
C[C@@H]1CN([C@@H](C)CO)C(=O)Cc2cc(NC(=O)Nc3ccccc3)ccc2O[C@@H]1CN(C)S(=O)(=O)c1ccc(F)cc1	-31.5	-17.4
C[C@@H](O)C#Cc1ccc2c(c1)O[C@@H](CN(C)C(=O)C1CCCCC1)[C@@H](C)CN([C@@H](C)CO)S2(=O)=O	2.1	1.8
O=C(N[C@H]1CC[C@H](CCNS(=O)(=O)c2ccc(Cl)cc2)O[C@H]1CO)c1cccc(F)c1	-1.8	5.8
O=C(C[C@H]1C=C[C@H](NC(=O)Nc2cc(F)ccc2F)[C@H](CO)O1)NCc1ccc2c(c1)OCO2	-1.7	-2.3
CC(C)NC(=O)N(C)C[C@@H]1Oc2ccc(NC(=O)Nc3ccc(C(F)(F)F)cc3)cc2CC(=O)N([C@H](C)CO)C[C@@H]1C	-6.5	-3.8
CO[C@@H]1CN(C)C(=O)c2ccc(NC(=O)Nc3ccccc3F)cc2OC[C@@H](C)N(C(C)=O)C[C@H]1C	-9.1	-4.2
C[C@@H]1CN([C@@H](C)CO)S(=O)(=O)c2ccc(-c3ccccc3)cc2O[C@@H]1CN(C)S(C)(=O)=O	-16.6	-20.1
